# GIV Gai3 FP: GIV-Galpha-i interaction inhibition. P08753. Galpha-i3/FITC-GIV peptide fluorescence polarization, 90 min; stronger effect = lower value; scaled: aluminum fluoride 0%, vehicle 100%. percent of control (FP), % (test concentration not listed). 210,000 tested, 0.42% active. AID 1224905;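 active means replicate mean at 85% of control or lower, very high polarization wells dropped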;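 further: wells of about 15 µL received 100 nL stock; the first replicate is given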
# Target sequence (P08753 whole entry, looked up): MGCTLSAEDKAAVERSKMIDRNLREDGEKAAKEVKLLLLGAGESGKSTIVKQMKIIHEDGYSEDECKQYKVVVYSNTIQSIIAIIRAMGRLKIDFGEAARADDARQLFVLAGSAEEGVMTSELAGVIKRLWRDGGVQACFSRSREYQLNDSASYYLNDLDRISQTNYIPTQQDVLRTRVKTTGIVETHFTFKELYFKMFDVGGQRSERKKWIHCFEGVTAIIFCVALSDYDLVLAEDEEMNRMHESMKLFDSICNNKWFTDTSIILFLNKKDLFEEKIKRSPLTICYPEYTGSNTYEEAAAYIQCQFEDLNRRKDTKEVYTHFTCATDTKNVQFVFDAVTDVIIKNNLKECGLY
# An asterisk follows results filed as active. A portion of the library, so the mix of outcomes need not match the whole.
SMILES,GIV Gai3 FP
Cc1ccccc1C(=O)Nc1cccc(-c2ccc3ccccc3n2)c1,103
COc1ccc(N(CC(O)Cn2c3ccccc3c3ccccc32)S(=O)(=O)c2ccc(Cl)cc2)cc1 (configuration not stated),115
COc1ccc(NC(=O)CSc2nnc(C)s2)cc1OC,102
Cn1cc2c(n1)c(=O)n(Cc1ccc(F)cc1)c1nn(Cc3ccc(F)cc3Cl)c(=O)n21,109
COc1ccc(C2NC(=O)NC(C)=C2C(=O)Nc2ccc(F)c(F)c2)c(OC)c1 (configuration not stated),106
CCn1c(CCc2ccc(NS(=O)(=O)c3ccc(C)cc3)cc2)nc2ccccc21,102
CCN(CC)S(=O)(=O)c1ccc(NC(=O)N2CCCC(C(=O)Nc3cc(C)cc(C)c3)C2)s1 (configuration not stated),104
CCn1c(C)c(-c2nc(C3CC3)no2)c(S(=O)(=O)NCC(C)C)c1C,109
COC(=O)c1sccc1NC(=O)CSc1nccnc1N1CCN(c2ccccc2)CC1,106
CC1CCCN(c2ccc(-c3noc(CN4CCSCC4)n3)cn2)C1 (configuration not stated),100
Cc1nnc(-c2cc(NS(C)(=O)=O)c(C)s2)o1,97
Cc1cccc(N2CCN(c3ncc(NC(=O)c4ccccc4C)cc3C(=O)O)CC2C)c1 (configuration not stated),121
CC1CCCCC1NS(=O)(=O)c1ccc(F)c(C(=O)Nc2cccc(Cl)c2)c1 (configuration not stated),105
CCc1ccccc1N=CC12c3ccccc3C(c3ccccc31)C1C(=O)N(c3ccc(OC)cc3)C(=O)C12 (configuration not stated),106
Cc1sc(-c2cc(C(F)(F)F)on2)cc1S(=O)(=O)NCc1ccc(Cl)cc1,103
CCn1cc(CN2CCN(c3ncnc4c3CCC4)CC2)cn1,100
Cc1nnc(-c2csc(S(=O)(=O)NC3CCCC3)c2)o1,104
CCOC(=O)C1=C(C)OC(N)=C(C#N)C1c1ccc(C(C)(C)C)s1 (configuration not stated),120
O=C(Nc1cnn(-c2ncc(N3CCSCC3)cn2)c1)NC1CCCC1,97
O=C(Nc1ccc(Cl)cc1)c1nnc(C2CCCN(C(=O)Nc3cc(F)ccc3F)C2)s1 (configuration not stated),110
Cc1ccc(-n2cc(-c3ccccc3)c3c(NCc4ccco4)ncnc32)cc1Cl,113
CCOC(=O)CSc1nc2c(c(=O)n1-c1ccc(F)cc1)SCC2,104
O=C(CN1C(=O)CC(c2cccc(Cl)c2)=Nc2cccnc21)Nc1ccc2c(c1)OCCO2,101
CCC1=NS(=O)(=O)c2cccnc2N1c1ccc2c(c1)CCC2,101
COc1ccc(-n2ncc3c(Nc4ccc(C)c(C)c4)ncnc32)cc1,105
# The results go on:
SMILES,GIV Gai3 FP
COc1ccc(-c2[nH]nc3c2C(c2cn[nH]c2-c2ccc(F)cc2)C(C#N)=C(N)O3)cc1 (configuration not stated),106
Cc1nc(CCNC(=O)[C@H]2CCCN2S(=O)(=O)c2ccc(F)c(Cl)c2)cs1,101
O=C(c1ccccc1)N1CCN(c2cc(N3CCCCC3)c(F)cc2[N+](=O)[O-])CC1,97
COc1ccc(NC(=O)c2cc3nc(-c4ccc(OC)c(OC)c4)cc(C(F)(F)F)n3n2)c(OC)c1,110
COC(=O)c1ccc(C2C(C#N)=C(N)OC(C)=C2C(C)=O)cc1 (configuration not stated),109
Cc1ccc(-c2nc3n(c2CNC(=O)C2CCCC2)CCS3)cc1,104
CC(=O)Nc1ccc2c(c1)OCCOCCOCCO2,112
COc1ccc(N2C(=O)C3C(c4ccccc4C)OC4(C(=O)c5ccccc5C4=O)C3C2=O)cc1OC (configuration not stated),98
CCn1c(C)c(-c2nc(C3CC3)no2)c(S(=O)(=O)NC2CCCC2)c1C,109
C=C1N(CCc2ccccc2)C(=O)OC12CCCCC2,106
Cc1ccc(-n2c(/C=C/c3cc4c(cc3[N+](=O)[O-])OCO4)nc3ccccc3c2=O)cc1,104
CCOc1ccc2c(c1)-c1c(ssc1=S)C(C)(C)N2C(=O)CSc1nc(C)cc(=O)[nH]1,106
c1coc(C2CC(c3cccs3)Nc3ncnn32)c1 (configuration not stated),103
Cc1ccc(S(=O)(=O)n2c([N+](=O)[O-])cnc2C)cc1C,111
C=CCn1c(=O)c2cnc(-c3ccc(OC)cc3)nc2n(C)c1=O,106
CCc1ccc(NC(=O)N(CCN2CCOCC2)C2CCN(C(C)=O)CC2)cc1,110
CCOc1ccc(NC(=O)CSc2nnc(CNC(=O)c3cccc([N+](=O)[O-])c3C)n2-c2cccc(C)c2)cc1,99
Fc1ccc(N2CCN(c3ncnc4c3cnn4-c3ccc(F)cc3)CC2)cc1,99
COc1ccc(OC)c(-n2c(=S)[nH]c3cc(C(=O)NCCSCc4ccccc4)ccc3c2=O)c1,112
CC1CCC(NS(=O)(=O)c2ccc3c(c2)CCN3C(=O)CCC(=O)N2CCCC2)CC1 (configuration not stated),93
Cc1nnc(-c2coc(S(=O)(=O)N3CCOCC3)c2)o1,106
CN(CCc1noc(-c2ccc(C(=O)N3CCOCC3)cc2)n1)C(=O)NC1CCCCC1,110
Cc1ccc(-c2csc(Cc3nc(-c4ccccc4)no3)n2)cc1,102
CC(C)N(C(=O)CN(C)S(=O)(=O)c1cc2c(cc1Cl)NC(=O)CO2)C1CCCCC1,106
COc1cc(NS(=O)(=O)c2cc(-c3cnn4c(C)cc(C)nc34)ccc2OC)cc(OC)c1,97
# Next section
SMILES,GIV Gai3 FP
CC1=CC(C)C2(CO)COC(c3ccccc3)C1C2C (configuration not stated),106
O=C(O)c1ccc2c3c1c(-c1ccc4c(=O)n5c6ccccc6nc5c5ccc(C(=O)O)c1c45)ccc3c(=O)n1c3ccccc3nc21,251
N#CC1=C(N)OC2=C(C(=O)CC(c3ccco3)C2)C12C(=O)Nc1ccc(Br)cc12 (configuration not stated),106
COc1cccc(NC(=O)CSc2nc3ccccc3c(=O)n2CCCC(=O)NCc2cccc(Cl)c2)c1,111
CC(C)(C)C1=Nn2c(nnc2-c2ccncc2)SC1,102
N#CC1(C#N)[C@@H]2c3ccccc3C=CN2[C@@H](C(N)=O)[C@@H]1c1ccc(Cl)cc1,111
c1ccc2c(c1)N1CCN=C1N2CCN1CCCCC1,114
CCc1nnc(-c2ccc(S(=O)(=O)N3CCCCC3)o2)o1,101
COc1ccc(-n2nc(C(=O)Nc3cnc4ccccc4c3)c3ccccc3c2=O)c(OC)c1,101
CC(C)(C)C(=O)[C@@H]1[C@@H](c2ccc(F)cc2)C(C#N)(C#N)[C@H]2C=Cc3ccccc3N12,131
COc1ccc(N(C(=O)/C=C/c2ccccc2)C2=CC3CCC(C2)N3C)cc1 (configuration not stated),116
Cn1c(=O)oc2cc(S(=O)(=O)N3CCN(C(=O)C4CC(=O)N(c5ccccc5)C4)CC3)ccc21 (configuration not stated),110
CCOC(=O)Cc1csc(NC(=O)c2c(O)c3cccc4c3n(c2=O)CCC4)n1,107
O=C(Cc1cccc2ccccc12)Nc1cc2c3c(c1)C1CCCC1CN3CC1CCCC21 (configuration not stated),100
Cc1ccc(S(=O)(=O)N2CCOc3ccc(COCc4ccccc4F)cc3C2)c(C)c1,105
CCCCc1ccc(-c2nc(C=Nc3ccc(Cl)c([N+](=O)[O-])c3)c(O)o2)cc1,116
CCOc1ccc(C2C(N3C(=O)c4ccccc4C3=O)C(=O)N2c2cccc(Cl)c2)cc1 (configuration not stated),117
CC(C)(C)C1=CC2(C=C(C(C)(C)C)C1=O)Nc1ccc([N+](=O)[O-])cc1OC2c1ccccc1 (configuration not stated),113
COc1ccc(C(CC(=O)c2ccco2)SCc2ccco2)cc1OC (configuration not stated),107
O=C(Nc1cnc(N2CCCC2)nc1)c1ccsc1,102
O=S(=O)(c1ccc(Br)cc1)N1CCN(c2ccc(N3CCCCC3)nn2)CC1,102
CCOc1ccc(NC(=O)CN2C(=O)/C(=C3\SC(=S)N(CCC(=O)O)C3=O)c3ccccc32)cc1,105
Cc1cccc(NC(=O)CSc2cc(N3CCC(C)CC3)ncn2)c1,102
CCCn1nnc(NCc2ccc(-c3ccc(Br)cc3)o2)n1,99
Cc1[nH]c(C)c(S(=O)(=O)N2CCCC2)c1-c1nnc(C2CC2)o1,97
# The results go on.
SMILES,GIV Gai3 FP
O=C(CSc1nnc2c(n1)[nH]c1ccccc12)NCCc1ccccc1,105
COC(=O)C1=C(N)n2c(s/c(=C\c3ccc(Cl)cc3)c2=O)=C(C(=O)OC)C1c1ccc(Cl)cc1 (configuration not stated),108
CCOC(=O)c1cnc2c(C)cc(C)cc2c1Nc1cccc(C(=O)OC)c1,104
CC1CC(C)CN(S(=O)(=O)c2ccc3[nH]cc(C(=O)N(Cc4ccco4)CC4CCCO4)c(=O)c3c2)C1 (configuration not stated),105
COC(=O)C1=C(C(=O)OC)SC(=C2C(=S)C(C)(C)N(C(=O)c3ccc(C(F)(F)F)cc3)c3ccc(C)cc32)S1,106
CC1CC(N(C(=O)c2ccc(Cl)cc2Cl)c2ccccc2)c2ccccc2N1C(=O)c1ccc(Cl)cc1 (configuration not stated),101
C=CCN(C(=O)c1cccc(N2C(=O)C3CC=CC(C)C3C2=O)c1)c1ccccc1 (configuration not stated),107
Cc1ccc(N2NC3(CCCC3)NC2=S)cc1,110
N#CC1=CN(c2ccc3c(c2)CCC3)c2cc(Cl)ccc2S1(=O)=O,102
Cc1nn(-c2ccccc2)c2ccn(CC(=O)N3CCN(c4cccc(Cl)c4)CC3)c(=O)c12,102
Cn1c(=O)c(O)c2c3c(c(Br)ccc31)C(=O)c1ccccc1-2,-29*
Cc1cc(-c2c(C)sc(C)c2S(=O)(=O)N2CCN(c3cccc(Cl)c3)CC2)n[nH]1,104
CCOC(=O)c1c(NC(=O)CSc2nnc(CNC(=O)COc3ccc(Cl)cc3)n2C)sc2c1CCC2,101
Cc1c(Cl)cccc1NC(=O)c1cc(S(=O)(=O)N2CCN(Cc3ccc4c(c3)OCO4)CC2)ccc1F,108
Cc1ccccc1C(=O)N1CCc2c(c(C(=O)N3CCCC(C(=O)Nc4ccccc4)C3)nn2C)C1 (configuration not stated),102
CC(=O)Oc1ccc2cc(-c3nc(-c4cccs4)cs3)c(=O)oc2c1,150
O=S(=O)(NCc1nc2cccnc2n1Cc1ccccc1)c1ccc(F)c(Cl)c1,106
CS(=O)(=O)c1nc2ccc(NS(=O)(=O)c3ccc(Br)s3)cc2s1,106
CC1(C)CC(=O)C2=C(C1)N(c1ccccc1C(F)(F)F)C(N)=C(C#N)C2c1ccsc1 (configuration not stated),110
COc1ccc(/C=C2\C=C(c3ccccc3)N(c3cccnc3)C2=O)cc1Br,44*
Cc1cccc(NC(=O)Nc2ccc(CCc3nc4ccccc4[nH]3)cc2)c1,103
O=C(CCn1c(N2CCCCC2)nc2ccsc2c1=O)NCC1CC1,99
Cc1nc(SCC(=O)Nc2cccc(C(=O)O)c2)c(C#N)c(C)c1C,100
COC(OC)C12c3ccccc3C(c3ccccc31)C1C(=O)N(Cc3ccc(F)cc3)C(=O)C12 (configuration not stated),115
COc1cc(NC(=O)CSc2nc3[nH]ncc3c(=O)n2-c2cccc(C(F)(F)F)c2)cc(OC)c1OC,108
# The list continues.
SMILES,GIV Gai3 FP
Cc1ccc(NC(=O)c2ccc(-c3noc(C4CCN(C(=O)c5ccccc5)CC4)n3)cc2)cc1C,100
Cc1c(-c2nsc(Nc3ccccc3)n2)nnn1-c1cccc(Cl)c1,98
Cc1ccc(CC(=O)N2CCN(c3cc(-c4ccc(C)cc4)ncn3)CC2)cc1,107
CCN(CC)c1cc(C)nc2nc(CN3CCC(N4CCCCC4)CC3)nn12,100
Cc1cc2nc3s/c(=C\c4ccc(-c5cc(C)c(C)c([N+](=O)[O-])c5)o4)c(=O)n3c2cc1C,122
Cc1csc(NC(=O)C(C)NS(=O)(=O)c2ccc3c(c2)CCN3C(=O)N2CCCC2)n1 (configuration not stated),108
O=C(NCc1ccc(Br)cc1)c1cccc(Oc2cc(-c3ccc(F)cc3)ncn2)c1,105
Cc1ccc2c(c1)C(c1ccccc1C(F)(F)F)CC(=O)N2 (configuration not stated),100
COc1ccc(NC(=O)c2ccc3ncc4c(=O)n(-c5ccc(F)cc5)[nH]c4c3c2)cc1OC,104
CCOc1ccc(C(=O)NCCOc2ccc(-c3ccc(C)cc3)nn2)cc1,95

# 16 successive compounds from above, quoted:
SMILES,GIV Gai3 FP
COc1ccc(/C=C2\C=C(c3ccccc3)N(c3cccnc3)C2=O)cc1Br,44*
Cc1cccc(NC(=O)Nc2ccc(CCc3nc4ccccc4[nH]3)cc2)c1,103
O=C(CCn1c(N2CCCCC2)nc2ccsc2c1=O)NCC1CC1,99
Cc1nc(SCC(=O)Nc2cccc(C(=O)O)c2)c(C#N)c(C)c1C,100
COC(OC)C12c3ccccc3C(c3ccccc31)C1C(=O)N(Cc3ccc(F)cc3)C(=O)C12 (configuration not stated),115
COc1cc(NC(=O)CSc2nc3[nH]ncc3c(=O)n2-c2cccc(C(F)(F)F)c2)cc(OC)c1OC,108
Cc1ccc(NC(=O)c2ccc(-c3noc(C4CCN(C(=O)c5ccccc5)CC4)n3)cc2)cc1C,100
Cc1c(-c2nsc(Nc3ccccc3)n2)nnn1-c1cccc(Cl)c1,98
Cc1ccc(CC(=O)N2CCN(c3cc(-c4ccc(C)cc4)ncn3)CC2)cc1,107
CCN(CC)c1cc(C)nc2nc(CN3CCC(N4CCCCC4)CC3)nn12,100
Cc1cc2nc3s/c(=C\c4ccc(-c5cc(C)c(C)c([N+](=O)[O-])c5)o4)c(=O)n3c2cc1C,122
Cc1csc(NC(=O)C(C)NS(=O)(=O)c2ccc3c(c2)CCN3C(=O)N2CCCC2)n1 (configuration not stated),108
O=C(NCc1ccc(Br)cc1)c1cccc(Oc2cc(-c3ccc(F)cc3)ncn2)c1,105
Cc1ccc2c(c1)C(c1ccccc1C(F)(F)F)CC(=O)N2 (configuration not stated),100
COc1ccc(NC(=O)c2ccc3ncc4c(=O)n(-c5ccc(F)cc5)[nH]c4c3c2)cc1OC,104
CCOc1ccc(C(=O)NCCOc2ccc(-c3ccc(C)cc3)nn2)cc1,95

# 2 entries picked at random from those above:
SMILES,GIV Gai3 FP
Cc1csc(NC(=O)C(C)NS(=O)(=O)c2ccc3c(c2)CCN3C(=O)N2CCCC2)n1 (configuration not stated),108
CCN(CC)c1cc(C)nc2nc(CN3CCC(N4CCCCC4)CC3)nn12,100
